Screening data from PubChem BioAssay.
Bead autofluor: counter-screen for toxin protease inhibitors: compound fluorescence; compound autofluorescence counterscreen, microsphere flow cytometry; hits give high values; fluorescence intensity (test concentration not listed); actives 3.1% (n = 360,000); AID 624483;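 active = at least 3 SD above the mean of all compounds, about 16000 in these data; inconclusive = too few beads counted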;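 note: 100 nL of 1 mM stock went into each well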
ugtP null kill: kills S. aureus RN4220 lacking UgtP. S. aureus RN4220 ugtP deletion, OD600 growth, 16 h; some inactives read as strong as hits. growth inhibition, % (no concentration beside the values). actives 0.54% (n = 330,000). AID 1259309;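 active = z-score under -3 and OD600 up to 0.15 on both plates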;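 note: plate controls were untreated wells for no effect and antibiotic for full effect; wells of about 80 µL received 100 nL stock; the first replicate is given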
BJeLR lethal: BJeLR cell viability loss; BJeLR (HRASV12) viability, CellTiter-Glo ATP luminescence, 48 h; reference of the scale not given here; inhibition, % (no concentration beside the values); actives 0.17% (n = 300,000);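 active = replicate mean above 50%; inconclusive = above 50% but judged a plate artefact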;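 note: 50 nL library stock added to about 25 µL; numbers are from one replicate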
Mtb hypoxia rep: inhibitors of hypoxia-regulated fluorescent reporter in Mycobacterium tuberculosis; M. tuberculosis hypoxia-regulated fluorescent reporter, fluorescence; fluorescence inhibition, % (test concentration not listed); actives 0.1% (n = 300,000);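 active = 35 to 45% if threefold the growth effect, above 45% if 1.5-fold the growth effect; inactive = the rest, general growth blockers included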;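 note: wells of about 50 µL received 100 nL stock; 0% = vehicle wells and 100% = reference inhibitor wells; whole bacteria with a GFP reporter of the hypoxia response; strong numbers were not always called active; many hits fall short of the cut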
PrP UTR inh: suppresses PrP 5' UTR mRNA reporter expression; cell-based PrP 5' UTR mRNA reporter, plate reader; inhibition, % (no concentration beside the values); actives 0.35% (n = 340,000); AID 488862;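 active = every replicate at 50% or more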;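 note: 0 = median of the neutral control wells; tested in H4 reporter cells; numbers are from one replicate; inactives centre near -14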
RN4220 kill: kills Staphylococcus aureus RN4220 | S. aureus RN4220 growth, OD600, 16 h | inhibition, % (no concentration beside the values) | actives 0.33% (n = 330,000) | AID 1259311;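 active = z-score of -3 or lower and OD600 up to 0.18 on both plates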;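 note: plate controls were untreated cells for no effect and reference antibiotic for full effect; stock transfer was 100 nL into about 80 µL; one replicate is shown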
Mtb hypoxia rep growth: recorded beside Mtb hypoxia rep, whose call it bears; growth inhibition, %; measured here: M. tuberculosis growth (absorbance);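 0% = vehicle and 100% = reference antibiotic; read after six days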
Starred values were filed as active, the others as inactive; ? = inconclusive; · = not tested or not shown.

SMILES	Bead autofluor	ugtP null kill	BJeLR lethal	Mtb hypoxia rep	Mtb hypoxia rep growth	PrP UTR inh	RN4220 kill
O=C(Nc1cccc(S(=O)(=O)NC2=NCCCCC2)c1)C1COc2ccccc2O1 (configuration not stated)	3964	5	-3	-12	-2	-24	5.7
CN(CC(=O)Nc1ccccc1Cl)C(=O)CSc1nnc(-c2ccco2)o1	2837	10	10	3	-3	-9	5.0
CCN(CC)CCCNC(=O)Cn1nc([N+](=O)[O-])c(Cl)c1C	2534	6	5	3	-1	-20	4.8
CCCOc1cccc(C2C(C(=O)c3cccs3)=C(O)C(=O)N2CCN2CCOCC2)c1 (configuration not stated)	4098	3	0	-1	-2	-14	2.7
CCOC(=O)CN=C(NS(=O)(=O)c1ccc(Cl)cc1)c1ccccc1	2567	1	2	-3	-2	-7	5.2
CC(=O)NC1=NC(=O)/C(=C/c2cc(C)n(-c3ccc(NC(C)=O)cc3)c2C)S1	4367	8	-2	16	5	-9	-22
Cc1ccc(C(C)NC(=O)c2cccs2)cc1 (configuration not stated)	3471	-6	0	·	·	-45	0.2
COc1ccc(OC)c(NC(=O)Cn2cccc2)c1	10785	6	-3	5	4	-28	2.0
O=C(CSc1nccc(=O)[nH]1)Nc1cccc2ccccc12	3569	12	6	12	-5	-32	5.0
CCCCn1c(SCC(=O)NNC(=O)c2ccco2)nnc1-c1ccco1	4431	3	0	0	5	2	2.1
CSCCC(NS(=O)(=O)c1ccc2c(c1)oc(=O)n2C)C(=O)NCc1ccc(C)cc1 (configuration not stated)	3534	0	1	4	-4	-54	3.0
O=C(Nc1ccccc1)Nc1ccc(C(=O)N2CCCC2)cc1	2632	0	40	8	15	-9	0.2
CNC(=S)Nc1cccc([N+](=O)[O-])c1	4432	8	4	-4	-6	-7	3.5
CCc1nnc(NC(=O)C(C)C)s1	3075	2	1	·	·	-12	2.9
COc1ccc(C(O)(CCc2ccccc2)CCN2CCCCC2)cc1 (configuration not stated)	3328	-4	1	0	4	-51	3.5
CCOC(=O)c1c(NC(NC(=O)CF)C(Cl)(Cl)Cl)sc2c1CCCC2 (configuration not stated)	8279	·	-2	·	·	-1	·
COc1ccccc1N1C(=O)c2cccnc2C1=O	3459	5	-10	7	9	-11	2.6
O=C(O)CSc1nnc(NC(=O)c2ccc3c(c2)OCO3)s1	4597	4	1	14	4	-19	6.0
COC(OC)c1ccnc(SCc2ccccc2Cl)n1	6736	14	-13	15	11	-13	5.0
Cc1ccc(OCCOc2ccc(Br)cc2C=NNC(N)=O)cc1	·	1	·	-12	-11	·	-1.1
CSCCC(NC(=O)c1ccc(Cl)cc1Cl)C(=O)NNC(=O)c1csc(N2CCOCC2)n1 (configuration not stated)	7323	7	-11	7	-1	-23	-0.7
Cc1ccc(C(=O)NNC(=O)c2cc(C)nc3ccccc23)cc1	?	-2	·	23	27	-8	6.4
Cc1ccc(NC(=O)c2ccc(F)cc2F)cc1NS(C)(=O)=O	4798	-3	-3	5	13	·	2.2
CN(Cc1ccc(F)cc1)C(=O)COc1ccc2ccccc2c1	3643	3	-15	10	4	-19	0.8
Cc1cc(C(=O)OCC(=O)Nc2ccc(F)c(F)c2)c(C)o1	21566*	-8	5	3	6	0	1.3

A different layout for 5 compounds above:
Fields: Bead autofluor, ugtP null kill, BJeLR lethal, Mtb hypoxia rep, Mtb hypoxia rep growth, PrP UTR inh, RN4220 kill
Cc1ccc(C(C)NC(=O)c2cccs2)cc1 (configuration not stated)
→ 3471, -6, 0, ·, ·, -45, 0.2
COc1ccc(OC)c(NC(=O)Cn2cccc2)c1
→ 10785, 6, -3, 5, 4, -28, 2.0
O=C(CSc1nccc(=O)[nH]1)Nc1cccc2ccccc12
→ 3569, 12, 6, 12, -5, -32, 5.0
CCCCn1c(SCC(=O)NNC(=O)c2ccco2)nnc1-c1ccco1
→ 4431, 3, 0, 0, 5, 2, 2.1
CSCCC(NS(=O)(=O)c1ccc2c(c1)oc(=O)n2C)C(=O)NCc1ccc(C)cc1 (configuration not stated)
→ 3534, 0, 1, 4, -4, -54, 3.0

Going on with the list:
SMILES	Bead autofluor	ugtP null kill	BJeLR lethal	Mtb hypoxia rep	Mtb hypoxia rep growth	PrP UTR inh	RN4220 kill
COc1cccc2cc(NC(=O)C3CCCCC3)c(=O)oc12	21365*	7	4	2	-5	-188	0.0
O=C(Nc1ccccc1)c1cccc(S(=O)(=O)NC2CCCC2)c1	5417	3	-1	14	14	1	3.6
Cn1c(SCc2cccc([N+](=O)[O-])c2)nc2c(c1=O)SCC2	4222	0	·	7	1	-19	8.9
O=C(CSCc1nc2scc(-c3cccs3)c2c(=O)[nH]1)Nc1ccccn1	4638	8	-5	-3	-3	-6	3.0
O=C(Oc1ccccc1N1C(=O)C2CCCCC2C1=O)c1ccccc1F (configuration not stated)	10309	5	1	8	14	-27	4.0
C=CCN1C(=O)C(C)(C)Nc2ccccc21	20000*	5	10	8	7	-18	2.5
Cc1ccc(OCCCC(=O)Nc2cc(Cl)ccc2-n2cncn2)cc1	?	-4	-2	0	5	-23	-0.8
COc1ccc(S(=O)(=O)NCC2CCCN(C(=O)CCSC)C2)cc1 (configuration not stated)	4208	11	-1	17	14	-3	5.2
COc1ccc(NC(=O)c2cc(-c3ccccc3)nc3c2c(C)nn3-c2ccccc2)c(OC)c1	2463	10	-2	-9	5	-27	2.6
COc1ccc(-c2c(-c3ccc(OC)cc3O)nc(C)nc2C(F)(F)F)cc1	2839	3	4	-4	-3	9	-0.2
Cc1cc(F)ccc1NC(=O)c1ccc(NS(=O)(=O)c2cc(C(C)(C)C)ccc2C)cc1	2256	·	13	·	·	-27	·
COC(=O)c1ccc(Oc2c(C)oc3c(CN4CCN(C)CC4)c(O)ccc3c2=O)cc1	8626	-10	3	10	4	-23	7.3
COc1cc(C(=S)N2CCCCC2)ccc1OCC(=O)N1CCCC1	4046	1	-13	-85	-24	-12	-0.3
COc1cc2c(c(O)c1OC)-c1c(cc(OC)c(OC)c1OC)CC(C)C(C)C2 (configuration not stated)	·	4	·	4	-1	·	4.1
CCOC(=O)N1CCC2(CC1)C(C#N)=C(N)OC1=C2C(=O)CCC1	4690	4	6	20	8	-8	2.8
COc1ccccc1C(=O)N1c2ccccc2Sc2ccccc21	11059	2	0	0	10	-31	3.6
CCO[C@H]1OC(C(N)=O)=C[C@@H](C2CCCCC2)[C@@H]1CCCO	4048	·	-1	·	·	-6	·
COc1ccc2[nH]c(C(=O)N3CCC(CO)(Cc4cccc(C(F)(F)F)c4)CC3)c(C)c2c1	3581	-9	9	7	11	-16	-1.3
CCOC(=O)c1ccc(Oc2nc(SC)nc(N(C)C)n2)cc1	3232	12	13	9	8	-13	11
Cc1ccc(C)c(NC(=O)CN(C)C(=O)COc2cccc3c2OC(C)(C)C3)c1	6350	0	6	12	-1	6	-1.1
CCN(CC(=O)Nc1c(F)cccc1F)C(=O)CSCC(=O)Nc1cccc(C)c1	5008	6	7	-1	0	-16	1.6
CC(=O)Nc1ccc(S(=O)(=O)N2c3ccccc3C(C)=CC2(C)C)cc1	4132	-4	48	-10	6	-10	9.7
CCCCN(C(=O)c1cccc(S(=O)(=O)N2CCOCC2)c1)c1c(N)n(CCC)c(=O)[nH]c1=O	4339	3	13	15	10	-24	2.5
C/C(=N\NC(=O)c1csc2ccccc12)c1ccc(O)cc1	3666	·	-3	·	·	-23	·
CCCCn1c(SCC(=O)NCc2cccs2)nc2c1c(=O)n(C)c(=O)n2C	7506	1	-1	5	12	-28	2.3
SMILES	Bead autofluor	ugtP null kill	BJeLR lethal	Mtb hypoxia rep	Mtb hypoxia rep growth	PrP UTR inh	RN4220 kill
COc1ccc2oc(=O)c(/C(N)=N/NC(=O)c3ccncc3)cc2c1	4504	·	-4	·	·	-22	·
CC(=O)N/C(=C/c1ccc2c(c1)OCO2)C(=O)N1CCOCC1	3356	4	-9	11	7	-14	1.1
O=C(O)c1cc(S(=O)(=O)N2CCCCCC2)ccc1Cl	8021	11	-3	6	-1	-70	4.1
O=S(=O)(NNC(=S)NCC1CCCO1)c1cc(Cl)ccc1Cl (configuration not stated)	5069	2	6	2	-4	-13	0.7
Cc1ccc(C2=CC(c3cccs3)n3nnnc3N2)cc1 (configuration not stated)	4124	-5	11	19	20	-46	8.5
CCOC(=O)C1=C(N)N(c2ccc(C)cc2)C2=C(C(=O)CCC2)C1c1cccs1 (configuration not stated)	2685	2	-9	7	7	-24	1.0
CC[C@@H]1CN(C)[C@H]2Cc3c([nH]c4ccccc34)C(=O)C[C@@H]1[C@@H]2C(=O)OC	5743	6	4	·	·	-20	1.9
Oc1cc2c(cc1O)CN(C(=S)NCCc1ccc(Cl)cc1)CCC2	4310	-1	·	8	9	-10	25
C[C@H](NC(=O)OC(C)(C)C)C(=O)NCC1CCC(C(=O)N[C@@H](Cc2ccccc2)C(=O)O)CC1 (some centres not stated)	3960	1	2	-3	6	-11	1.4
O=C(NNc1ccc([N+](=O)[O-])cc1)c1ccccc1F	5192	-7	·	-5	0	-27	1.9
Cc1ccc(CNC(=O)C(Cc2ccccc2)NS(=O)(=O)c2ccc3c(c2)CCC(=O)N3)cc1 (configuration not stated)	5099	-3	-3	·	·	-27	4.4
Cc1ccc(NC2CCCN(C(=O)c3c(C)noc3C)C2)cc1C (configuration not stated)	5724	1	9	13	-32	-13	-0.1
COc1cccc(-c2nc(CS(=O)(=O)CC(=O)N3CCc4ccccc4C3)c(C)o2)c1	5413	11	-9	·	·	-13	9.1
CCOC(=O)c1c(C)[nH]c2c1-c1ccccc1C(=O)C2=O	2335	41	74*	2	6	21	55
Cc1ccc(N2C(=O)CC(Sc3nc(-c4ccccc4)c4cc(Cl)ccc4n3)C2=O)c(C)c1 (configuration not stated)	11206	0	2	5	-5	-13	-1.0
Cc1ccccc1CN(c1ccc(C(=O)Nc2ccccc2C(=O)NCc2ccco2)cc1)S(C)(=O)=O	12198	-16	-5	-4	-3	-6	-0.7
CCCc1cc(=O)oc2c(C)c(OCC(=O)NC3CC(C)(C)NC(C)(C)C3)ccc12	6421	7	9	11	3	8	4.4
CN(C)CC/C=C1\c2ccccc2Sc2ccc(Cl)cc21	4707	·	-12	·	·	9	·
O=c1c2ccccc2sc2ccccc12	3901	8	·	6	7	-39	4.1
O=C(Nc1ccc(Cl)cc1)OCCN1CCOCC1	4033	11	·	19	9	-42	3.0
CN1C(=O)C(=Cc2ccc(N(C)C)c([N+](=O)[O-])c2)C(=O)N(C)C1=O	·	5	9	-4	5	·	5.3
Cc1noc(C)c1COc1cccc(C(=O)N(C)Cc2nc3ccccc3c(=O)[nH]2)c1	·	1	·	-4	2	-12	5.7
O=C1CC2(CON=C2c2ccc(F)cc2)C(=O)N1c1ccc(F)cc1 (configuration not stated)	3672	-3	5	10	9	-15	6.8
COc1ccc(-c2noc(CSc3nc4ccccc4c(=O)n3-c3ccccc3)n2)cc1	21618*	30	3	5	6	-13	5.0
COc1ccc(-n2nc3cc(C)c(N)c(Br)c3n2)cc1	4530	16	-1	·	·	-84	-2.9
SMILES	Bead autofluor	ugtP null kill	BJeLR lethal	Mtb hypoxia rep	Mtb hypoxia rep growth	PrP UTR inh	RN4220 kill
COc1ccc(CCNC(=O)CC2SC(=Nc3cc(C)cc(C)c3)NC2=O)cc1OC (configuration not stated)	3972	6	4	7	10	-29	13
Cc1ccc(C(=O)N2CCCCC2C(=O)O)o1 (configuration not stated)	4336	6	2	-1	-16	1	13
Nc1ccn(CC(=O)N2CCN(c3ccccn3)CC2)c(=O)n1	2997	-2	·	11	5	-15	6.2
COc1ccc(CN2CCCC(C(=O)Nc3cccc(-n4cccn4)c3)C2)c(F)c1 (configuration not stated)	4933	17	-6	7	0	-7	2.0
O=C(O)C1=C(C(=O)Nc2cccc(C(F)(F)F)c2)CCCC1	4753	-3	1	2	9	2	4.9
Cc1ccc(NC2=C(NC(=O)c3ccccc3)C(=O)c3ccccc3C2=O)cc1Cl	10373	88*	2	7	12	-38	86*
O=C(NCc1cccnc1)c1ccc(NC(=O)c2ccc(Br)cc2)cc1	4415	-4	78*	7	1	-10	1.4
O=C(Nc1ccc2snnc2c1)N1CCSCC1	9245	-4	-7	1	0	-20	2.5
COc1ccccc1N=c1oc2cc(O)ccc2cc1C(N)=O	3819	-6	27	3	1	-39	-2.2
CN(C)C(=O)c1ccc(NC(=O)c2cc(-n3cnnc3)ccc2Cl)cc1	2108	4	4	2	5	-10	4.6
